NPYLR7 ag: activates Aedes aegypti NPYLR7 receptor; HEK293T NPYLR7/Galpha15, GCaMP6s calcium fluorescence; activation, % at 10 µM; actives 0.15% (n = 270,000); AID 1259423; in the data active means activation above about 40%;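 further: 0% = vehicle and 100% = reference agonist at the receptor; some compounds past the cut are filed as inactive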
NPYLR7 ag max-min: further read-out of NPYLR7 ag, marked with its call; activation, %; measured here: Max-Min RFU normalised activation; some inactives read as strong as hits;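 span of the calcium signal over five minutes; 0% = vehicle and 100% = native peptide agonist; compound fluorescence can raise it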
Starred values were filed as active, the others as inactive; & = joins results of further samples.

Values in the order – NPYLR7 ag	NPYLR7 ag max-min
> N#CCCN(C(=O)CN1C(=O)c2ccc([N+](=O)[O-])cc2C1=O)c1cccc(Cl)c1
→ 6	4
> CCOc1ccc(C2SCC(=O)N2c2c(C)n(C)n(-c3ccccc3)c2=O)cc1 (stereo unspecified)
→ -6	-11
> COc1ccccc1-n1ncc2c(C)nnc(SCC(=O)Nc3ccc4c(c3)OCCO4)c21
→ -11	-14
> NC(=S)NN=C(C(=O)c1ccccn1)c1ccccn1
→ -3	-7
> COc1ccc(CCNC(=O)c2cc(-c3ccccc3Cl)nc3ccccc23)cc1OC
→ 3	-3
> Cc1cccc(-c2ncc(CNCc3ccccc3Cn3cccn3)cn2)c1
→ 2	20
> CCCCS(=O)(=O)N1CCC(c2nnc(C3CC3)s2)CC1
→ -8	-5
> Cc1nc(-c2ccncc2)ncc1C(C)NC(=O)c1ccc(Cl)s1 (stereo unspecified)
→ 4	0
> O=C(NCC1CCOCC1)c1csc(N2CCNC2=O)n1
→ -2	-4
> COCCCNC(=O)CSc1nc2ccccc2n1CC(C)C
→ 11	9
> CCCCSc1nc2c(c(=O)[nH]1)C(c1ccccc1)C(C(=O)OC(C)C)C(C)=N2 (stereo unspecified)
→ 4	3
> Cc1ccc(C)c2[nH]c(=O)c(CCNC(=O)c3cccc(C(F)(F)F)c3)cc12
→ 4	4
> O=C(Cc1cc(-c2ccc(F)cc2)on1)N1CCCc2ccccc21
→ 6	7
> O=C(COC(=O)C1(c2ccc(Cl)cc2)CCCC1)NCC(F)(F)F
→ 3	1
> Cc1csc(CNc2nccc(-c3c(C)nn(-c4ccccc4)c3C)n2)n1
→ 4	2
> COc1ccc(N2C(=O)CSC2c2cccc(OC)c2OC)cc1Cl (stereo unspecified)
→ -13	-24
> COC(=O)c1ccccc1NC(=S)N[C@H](c1nnc2c(C(F)(F)F)cccn12)C(C)C
→ -2	-10
> COc1ccc(S(=O)(=O)NCCCn2nc(-c3ccc(F)cc3)ccc2=O)cc1F
→ -1	-3
> CCc1ccc(CN2CCCC3(CCN(C(=O)c4ccc(F)cc4)C3)C2)nc1 (stereo unspecified)
→ 10	3
> Cc1noc(-c2ccc(C(C)(C)C)cc2)c1C(=O)NCc1ccc(F)cc1F
→ 1	-2
> CCc1csc(CNC(=O)Cc2nc3ccccc3o2)n1
→ 9	1
> Cc1ccc(C(=O)NNc2ccc(C)cc2C)cc1
→ 4	3
> CSc1nc2ccc(N)cc2s1
→ 4&7	4&4
> O=C(CSc1ncnc2sc3c(c12)CCCC3)NC12CC3CC(CC(C3)C1)C2
→ 1	2
> CCOC(=O)C1CCN(c2ccc(C(F)(F)F)cc2C#N)CC1
→ 2	-2
> CN1C(=O)C(O)(CC(=O)c2ccco2)c2cc(Br)ccc21 (stereo unspecified)
→ 12	2
> O=C(O)c1ccc(-c2ccc3ncnc(NCCO)c3c2)s1
→ 7	2
> Cc1ccccc1CC(=O)N1CCCC1CC(=O)c1cnn(C)c1 (stereo unspecified)
→ 5	2
> Cc1nc(CNC(=O)NC(C)c2cc(C)c(F)c(C)c2)no1 (stereo unspecified)
→ 4	5
> O=C(CN(Cc1cccc(O)c1)C1CC1)N1CCCCCC1
→ 6	4

Looked up above.
CCc1ccc(CN2CCCC3(CCN(C(=O)c4ccc(F)cc4)C3)C2)nc1 (stereo unspecified) @ NPYLR7 ag = 10
COc1ccc(N2C(=O)CSC2c2cccc(OC)c2OC)cc1Cl (stereo unspecified) @ NPYLR7 ag max-min = -24
Cc1nc(-c2ccncc2)ncc1C(C)NC(=O)c1ccc(Cl)s1 (stereo unspecified) @ NPYLR7 ag max-min = 0
O=C(O)c1ccc(-c2ccc3ncnc(NCCO)c3c2)s1 @ NPYLR7 ag max-min = 2
COc1ccc(CCNC(=O)c2cc(-c3ccccc3Cl)nc3ccccc23)cc1OC @ NPYLR7 ag max-min = -3
COc1ccc(S(=O)(=O)NCCCn2nc(-c3ccc(F)cc3)ccc2=O)cc1F @ NPYLR7 ag = -1

Next results.
Values in the order – NPYLR7 ag	NPYLR7 ag max-min
> CCCCN(CC(N)=O)C(=O)/C=C/c1cnc2ccccc2n1
→ 11	6
> CC(C)(C)OC(=O)N1CCC(Oc2ccc(NC(=O)c3ccc(Cl)c(Cl)c3)cc2)C1 (stereo unspecified)
→ -10	-12
> Cc1cnc(CNC2(c3nc(C)cs3)CCCC2)cn1
→ 12	6
> Cc1ccccc1Nc1nnc(C(O)CCc2ccccc2)s1 (stereo unspecified)
→ 6	4
> CCOc1cccc(C(=O)NC(C#N)c2ccsc2)c1 (stereo unspecified)
→ 3	0
> CCC(C)N(Cc1csc(COc2ccccc2C)n1)C(=O)c1cccc(Br)c1 (stereo unspecified)
→ -8	-4
> Nc1ccccc1S(N)(=O)=O
→ -1	-5
> O=c1cc(C(F)(F)F)c2ccc(OCc3cc(=O)n4ccsc4n3)cc2o1
→ 12	11
> CCc1nn(C)c(Cl)c1CN1CCC(c2cc(C(C)C)n[nH]2)CC1
→ 4	-1
> CCc1nccn1CCCn1cc(C2CC=CCC2)nn1 (stereo unspecified)
→ 2	14
> CCC(CC)C(=O)N(Cc1cc(NC(=O)C2CCC2)ccc1N(C)C)CC1CC1
→ 22	19
> CN(C)CCCN(C(=O)c1ccc([N+](=O)[O-])o1)c1nc2ccccc2s1
→ -4	-9
> Cc1nn(-c2ccccc2)c(C)c1C1C(=O)NCCN1Cc1cc(=O)n2c(C)csc2n1 (stereo unspecified)
→ 0	1
> CC(=NNC(N)=S)C(C)=NNC(N)=S
→ 9	6
> Cc1nc(NC(=O)CCCn2ccnc2C)ccc1Br
→ 5	0
> O=C(CCc1ccc(Cl)cc1)N1CCCC(O)(CO)CC1 (stereo unspecified)
→ 10	8
> Cc1nc2cc(C(F)(F)F)ccc2n1C1CCN(C(=O)C2=CCCCC2)CC1
→ 6	2
> CN(Cc1ccc(N2CCCCC2)cc1)C(=O)CNC(=O)c1cc(Cl)ccn1
→ -8	-9
> CC(C)=CC1C(C(=O)N2CCN(C(=O)c3ccccc3O)CC2)C1(C)C (stereo unspecified)
→ 1	9
> C=Cc1ccc(CN2C(=O)C(C)ON=C2c2ncccc2C)cc1 (stereo unspecified)
→ 7	5
> Cc1cc(C)cc(Oc2cnn(-c3ccccc3)c(=O)c2Nc2cccc(C(=O)NCCN(C)C)c2)c1
→ -4	0
> CN(C(=O)c1cc2c(nc1Cl)CCC2)C(c1ccccc1)c1ccccc1
→ 2	1
> Cn1c(P(=O)(O)c2ccccc2)nc2ccccc21
→ 2	0
> CC(=O)NCC12CC3CC(CC(C3)C1)C2
→ 8	7
> Cn1c(=O)c2[nH]c(NC3CCCC3)nc2n(C)c1=O
→ 0	-1
> Nc1nc2c(s1)C[C@@H]1C[C@H]2[C@@H](Oc2ccccn2)CN1Cc1ccc(F)cc1
→ 5	4
> Cc1nn2c3c(nnc2c1-c1ccccc1)C(=O)CC(C)C3 (stereo unspecified)
→ -11	-17
> Cc1ccc(C2CC(c3ccc(C)c(C)c3)=Nc3nnnn32)cc1 (stereo unspecified)
→ 8	5
> Cc1cc(Cn2ccnc2-c2ccc(C(=O)O)cc2)no1
→ 10	7
> CCOC(=O)c1cn[nH]c1S(=O)(=O)Nc1cc(C)ccc1C
→ 1	-2

Sorted by count of non-hydrogen atoms (falling): 3 of the compounds above.
Values in the order – NPYLR7 ag	NPYLR7 ag max-min
> Cc1nn(-c2ccccc2)c(C)c1C1C(=O)NCCN1Cc1cc(=O)n2c(C)csc2n1 (stereo unspecified)
→ 0	1
> CCCCN(CC(N)=O)C(=O)/C=C/c1cnc2ccccc2n1
→ 11	6
> O=C(O)c1ccc(-c2ccc3ncnc(NCCO)c3c2)s1
→ 7	2

Additional compounds follow:
Values in the order – NPYLR7 ag	NPYLR7 ag max-min
> Cc1ccc(C(=O)Nc2ccc(OCC#N)cc2)cc1C
→ -1	-2
> C=CCSc1nc(C)c2cc(OCC)ccc2n1
→ -2	-9
> Cc1c(Cl)ccc2sc(N(CCCN3CCOCC3)C(=O)c3cccs3)nc12
→ -2	-7
> Cc1ccc2c(c1)c(-c1nc(CC3CCN(C)CC3)no1)nn2C
→ 17	23
> CN1CCN(C(=O)c2nn(-c3ccccc3F)c(=O)n(Cc3cccc(Cl)c3)c2=O)CC1
→ -2	-7
> CCc1nccc(CN2CCC(Cc3ccc(F)cc3)CC2)n1
→ -1	-8
> O=C(Cc1c[nH]c2ccccc12)NCc1cccnc1Oc1ccccc1
→ 9	9
> CC1(C(=O)Nc2ccc(Cl)c(Cl)c2)CCN1C(=O)CC1CCCC1 (stereo unspecified)
→ 2	-2
> CCOc1ccc(-n2nnc(C(N)=O)c2C)cc1
→ 1	-3
> Cc1ccccc1-n1[nH]c(C(C)C)c(-c2ccc(NC(=O)c3cccc(C(F)(F)F)c3)cc2)c1=O
→ 9	6
> COc1ccc(Cl)c2sc(N(CCN(C)C)C(=O)c3cc(C)nn3C)nc12
→ 0	0
> Cc1ccccc1OCC(=O)N1CCc2onc(-c3ccccc3F)c2C1
→ 6	9
> CCCCC1C(=O)N(C)CCN1C(=O)Nc1nnc(C(C)(C)C)s1 (stereo unspecified)
→ 25	5
> CCOC(=O)N1CCN(C(=O)c2cn(CC3CCCNC3)nn2)CC1 (stereo unspecified)
→ -1	-7
> CCCN(Cc1c(-c2ccccc2F)noc1N1CCOCC1)C(=O)c1ccc(F)cc1
→ 6	9
> CCCCC(=O)Nc1c(-c2ccccc2OC)nc2ccc(C)cn12
→ -4	1
> CNC(=O)C12CC3(C)CC(C)(CC(C)(C3)C1)C2
→ 1	5
> COC(=O)C1C(=O)C2=C(CC1C)NC(C)=C(C(=O)OC1CCCCC1)C2c1ccc(C)o1 (stereo unspecified)
→ 0	1
> COCCCn1c(-c2ccc(OC)cc2)nc2oc3cc(OC)ccc3c(=O)c2c1=O
→ 5	2
> Cc1cc(OC(C)C)nc(-c2ccccc2O)n1
→ 18	8
> COc1ccc(Cl)cc1CN1C(=O)C(C)Oc2ccc(C#N)cc21 (stereo unspecified)
→ -3	-4
> COc1cc(OC)cc(-n2c(CCC(=O)NCCc3cccs3)cc3c2-c2ccccc2CC3)c1
→ 1	0
> Cc1ccc(-n2nc3c(c2NC(=O)Cc2cccs2)CSC3)c(C)c1
→ -2	-2
> O=C1CSC(c2cccc(F)c2)N1CCO (stereo unspecified)
→ 1	-2
> CC(=O)N1CCN(C(=O)c2c(C)c(C)c(C)n2Cc2cccc(C(F)(F)F)c2)CC1
→ 10	19
> CC(NC(=O)C(C)(C)C)C(=O)OCC(=O)N(C)Cc1cccs1 (stereo unspecified)
→ 5	2
> CC[C@H](CCC(C)[C@H]1CCC2C3CCC4C[C@@H](O)CC[C@]4(C)C3CC[C@@]21C)C(C)C (stereo partly specified)
→ -8	-13
> COc1cccc(Cn2c(=O)c(C(=O)N3CCN(C)CC3)nn(-c3cc(C)cc(C)c3)c2=O)c1
→ 0	6
> O=C(c1ccc(CSc2ncccn2)o1)N(C1CCOCC1)C1CC1
→ 2	-5
> CCC(C)N(C(=O)CS(=O)(=O)c1nc2ccccc2[nH]1)C(C)CC (stereo unspecified)
→ 17	8
> CC(C)NCCc1ncc(-c2ccc(S(C)(=O)=O)cc2)[nH]1
→ -1	25
> CCOc1ccccc1/C=N\NC(=O)CSc1nnc(-c2ccccc2)n1-c1ccccc1
→ -10	-15
> CNC(=O)[C@H]1C[C@]2(CCCCNC2=O)N(C(=O)c2ccccc2)[C@H]1c1ccccc1
→ 4	15
> O=C(COc1ccccc1)OCc1cc(-c2ccc3c(c2)OCO3)on1
→ -2	-5
> O=S(=O)(NCc1nc(-c2ccc(F)cc2)n[nH]1)N1CCCC1
→ 2	0
> CCCc1nnc(C(=O)N2[C@@H]3CC[C@H]2CN(C)CC3)o1
→ -5	-6
> CCc1nn(CC(=O)N(CC)CC)c(=O)c2cc3sccc3n12
→ 6	5
> FC(F)(F)c1ccc(C2c3cccn3CCCN2Cc2ccco2)cc1 (stereo unspecified)
→ 13	10
> CCC(=O)OCN1C(=O)C=CC1=O
→ -7	-13
> N#Cc1ccc(NN2C(=O)c3cc(Cl)c(Cl)cc3C2=O)c([N+](=O)[O-])c1
→ -3	-3
> CCOc1ccc(S(=O)(=O)NCc2ccc3c(c2)OCO3)cc1
→ 0	-6
> CNC(=O)[C@H]1C[C@]2(CCCCN(CCO)C2=O)N(C(=O)COC)[C@H]1c1ccco1
→ 3	14
> O=C(NC(Cc1cc(=O)[nH]c2ccccc12)C(=O)O)c1ccc(Cl)cc1 (stereo unspecified)
→ -15	-25
> COc1ccc2nc(-c3ccc(Cl)c(NC(=O)C4CCCC4)c3)cn2n1
→ -10	-14
> CCc1ccc(S(=O)(=O)NCC2CCN(C)CC2)s1
→ -8	-12
> COc1ccc2nc(N(Cc3ccccn3)C(=O)c3cc(C)nn3C)sc2c1
→ 8	7
> O=C(c1ncn[nH]1)N1CCN(c2nccc(CCC(F)(F)F)n2)CC1
→ 2	-2
> Cc1cccc(OCC(=O)N=Nc2c(O)n(C)c3ccccc23)c1
→ -1	-7
> CC1C(=O)N(c2ccc(F)cc2)CCN1C(=O)c1cccc(F)c1 (stereo unspecified)
→ -1	1
> O=P1(Nc2ccccc2-c2nc3ccccc3[nH]2)C=C(c2ccccc2)OC(c2ccccc2)=C1
→ 4	2
> CCC(=O)N1CCN(c2nc(-c3ccccc3)nc(COC)c2Cc2ccc(Cl)cc2)CC1
→ 5	15
> O=C(c1ccc2ncsc2c1)N(CCN1CCOCC1)c1nc2ccc(Cl)cc2s1
→ 10	6
> CC(C)OC(=O)N1CCC(OC(=O)CNC(=O)C2CCCC2)CC1
→ 6	5
> O=S(=O)(CCN1CCC(O)CC1)c1ccc(Cl)cc1
→ 6	5
> COc1ccc2c(C)cc3nnc(SCCC(N)=O)n3c2c1
→ 0	0
> CCCCC(=O)Oc1ccc(-c2nc3cc(C)ccn3c2NC(C)(C)CC(C)(C)C)cc1OC
→ -3	7

One compound at a time, as listed above. Values in the order: NPYLR7 ag	NPYLR7 ag max-min
Cc1ccc(C(=O)Nc2ccc(OCC#N)cc2)cc1C reads -1	-2
Cc1nc(NC(=O)CCCn2ccnc2C)ccc1Br reads 5	0

Assay outcomes from PubChem BioAssay.

The list is partial (hit frequency here may not be typical).
